# Assay outcomes (PubChem)
# D2 agonist = human D2 receptor agonism in beta-arrestin assay; activation, % (test concentration not listed); P14416; DiscoveRx PathHunter D2 beta-arrestin, luminescence, 90 min; 100% = 57 uM dopamine signal; 0.084% of 360,000 active; in the data active = activation above about 40%; inconclusive = about 15% to 40%; inactive = below about 15%; further: compound concentration not given in the record; the text of the record calls up to 30% inactive
# Target sequence (P14416 whole entry, looked up): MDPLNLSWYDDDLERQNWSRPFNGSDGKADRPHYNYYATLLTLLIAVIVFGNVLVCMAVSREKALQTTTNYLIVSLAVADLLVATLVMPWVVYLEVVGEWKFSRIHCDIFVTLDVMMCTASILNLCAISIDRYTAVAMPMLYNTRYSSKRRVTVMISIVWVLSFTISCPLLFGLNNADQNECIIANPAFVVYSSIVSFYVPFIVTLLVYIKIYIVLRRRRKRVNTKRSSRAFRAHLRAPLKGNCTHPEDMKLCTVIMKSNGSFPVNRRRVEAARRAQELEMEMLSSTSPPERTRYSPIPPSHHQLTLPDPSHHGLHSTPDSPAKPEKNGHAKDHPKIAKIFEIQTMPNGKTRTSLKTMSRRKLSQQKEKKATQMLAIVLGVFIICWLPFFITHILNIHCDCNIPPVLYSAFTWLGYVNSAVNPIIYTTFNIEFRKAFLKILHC
#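 Agonist mode: compounds alone added to overnight-plated D2 PathHunter cells for 90 min at 37 C, with 57 uM final dopamine (EC100) defining full response. Beta-arrestin recruitment detected by chemiluminescent reagent, read after 1 h at ambient temperature.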
# gsp antagonist = gsp mutant antagonism | 0.4% of 340,000 active | Potency, µM (highest dose often 76.9 µM), for the others: at the top dose activity change, negative = inhibition, usual class: inhibitors | gsp-mutant cells, cAMP HTRF, 30 min; control for the full effect not named in the record; active = falling curve of any shape with a large fitted effect; inconclusive = falling curve, mostly with a smaller effect; inactive = flat or rising curve; cell line not stated here;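 further: intracellular cAMP measured with PDE inhibitor Ro 20-1724 present during compound exposure; potency means the concentration at half of the fitted maximal effect; on the % scale 0 is the no-effect control and ±100 the full control effect; nearly all actives have a fitted effect of over 65% in size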
#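 HTRF cAMP read-out (cAMP-d2 plus anti-cAMP antibody-K in lysis buffer, 30 min RT). Before lysis, cells are exposed to compounds with […] for 30 min at 37C in DPBS containing Ca/Mg, BSA and Tween 20.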
# Sfp PPTase inh = Sfp phosphopantetheinyl transferase inhibition. Q9F4F7. Biochemical Sfp PPTase activity, qHTS. Potency, µM, without a hit: max response, negative = inhibition, actives largely listed as inhibitors. 3.5% of 310,000 active; active means well fitted inhibition curve with a large enough effect; inconclusive means small, poorly fitted or top-dose-only effect, or another doubt; inactive means no such curve, though single readings can be large or run the other way;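 further: the enzyme is Sfp with the accession as filed and its product quenches rhodamine fluorescence; potency means the concentration at half of the fitted maximal effect; 0% = enzyme reaction without inhibitor and -100% = no enzyme wells; top concentration of the series not given in the record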
#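 Sfp 15 nM + cpd, 15 min RT; start w/ rhodamine-CoA 5 uM, BHQ-2-YbbR 12.5 uM (final); 50 mM Hepes pH 7.6, 10 mM MgCl2, 0.01% NP-40, 0.01% BSA; read 525/598 nm at 0 and 30 min.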
# PINK1 expr mod = PINK1 expression modulation; PINK1 immunofluorescence, high-content cytometry, 24 h; Potency, µM (series often up to 76.6 µM), inactives show at the top dose activation (PINK1 increase), most hits filed as activators; 0.2% of 410,000 active; active = well fitted activation curve with a large enough effect; inconclusive = small, poorly fitted or top-dose-only effect; inactive = flat fitted curve, though single readings scatter; cell line not stated here;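 further: potency means the concentration at half of the fitted maximal effect; % of control where 0% means no effect; nearly all actives have a fitted effect of over 65% in size; a mitochondrial uncoupler was the plate control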
#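 Decision-based qHTS: stable cells, 24 h exposure to five compound concentrations, CCCP as control. Fixed cells stained for PINK1 plus nuclear, mitochondrial and cell markers, cytometer read.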
# ClpP mod = qHTS Assay for Activators of ClpP; ATP-dependent Clp protease proteolytic subunit (Bacillus subtilis (strain 168)), P80244; purified B. subtilis ClpP, FRET peptide cleavage, 20 min; Potency, µM (series often up to 57.5 µM), for inactives: at the top dose activity change, negative = active; 1.9% of 340,000 active; AID 651965, 2013; active = well fitted falling curve with a large enough effect; inconclusive = small, poorly fitted or top-dose-only effect; inactive = no such curve, though single readings can be large or run the other way; further: potency means the concentration at half of the fitted maximal effect; the source files actives as falling curves though it sought activators and does not explain the sign; nearly all actives have a fitted effect of over 65% in size; many hits overshoot -100%
# Target sequence (P80244 whole entry, looked up): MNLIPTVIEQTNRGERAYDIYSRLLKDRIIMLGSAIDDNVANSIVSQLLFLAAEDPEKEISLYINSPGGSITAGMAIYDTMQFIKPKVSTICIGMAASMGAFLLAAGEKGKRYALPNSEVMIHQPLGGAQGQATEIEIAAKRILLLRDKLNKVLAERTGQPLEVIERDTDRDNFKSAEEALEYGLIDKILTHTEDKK
#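 FRET quenching reversal measured ClpP activation: 10 microg/mL B. subtilis ClpP at pH 8 with the FRET-FV decapeptide, read at 430 nm after 320 nm excitation. The 20-min minus 0-min signal was scaled between DMSO/no-enzyme wells and ADEP (5.8 microM final).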
# Menin MLL FP FL = menin-MLL binding inhibition, fluorescein peptide | Fluorescence polarization, fluorescein-MLL peptide displacement from menin | FP activity change, % at 61.4 µM | 290,000 tested, under 10 active | AID 1766; inconclusive = falling polarisation curve, or a change in total fluorescence; inactive = total fluorescence flat and polarisation flat or rising; no compound was filed as active; the % refers to the polarisation; negative = inhibition;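 further: % of control where 0% means no effect; inhibitors lower the polarisation; unlabelled MLL peptide was the positive control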
# gsp agonist = gsp mutant agonism. gsp mutant cells, cAMP HTRF, 30 min; control for the full effect not named in the record. Potency, µM (titrated, usually from 76.9 µM), inactives show at the highest dose activation (cAMP increase), most hits filed as activators. 0.13% of 340,000 active. AID 624287; active = well fitted activation curve with a large enough effect; inconclusive = small, poorly fitted or top-dose-only effect, or another doubt; inactive = no such curve, though single readings can be large or run the other way; cell line not stated here;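 further: phosphodiesterase inhibitor Ro 20-1724 added with compounds to block cAMP breakdown; potency means the concentration at half of the fitted maximal effect; nearly all actives have a fitted effect of over 60% in size; about a fifth of the inactives were tested at one dose only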
#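 Cells stably selected in G418 were plated at 2000/well, grown 16-24 hr, then given compounds in DMSO with the PDE inhibitor […] (300 uM solution added) for 30 min at 37C; cAMP was read by HTRF.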
# * hit, by the source's call; ? = inconclusive; · = no result given; & = joins results of further samples; [ ] = remark or other dose.
SMILES,D2 agonist,gsp antagonist,Sfp PPTase inh,PINK1 expr mod,ClpP mod,Menin MLL FP FL,gsp agonist
COc1ccccc1NC(=O)N(Cc1ccc2c(c1)OCO2)Cc1nc2ccccc2c(=O)[nH]1,-2.0,6.8%,18.6%,2.6%,-0.2%,2.0,0.0%
COc1cccc(Nc2nc3cc(OC)ccc3cc2C#N)c1,0.8,-14.6%,16.0%,3.9%,·,-7.3,?
Cc1ccc(N=Cc2c(O)c3ccccc3n(C)c2=O)cc1,2.3,?,-24.2%,3.6%,-0.7%,10.5,18.7%[15.4 µM]
Fc1ccc(NC(=S)N2CCN(c3cccc(C(F)(F)F)c3)CC2)cc1,1.0,-17.9%,8.1%,15.8%,3.6%,3.5,-2.2%
O=C(Nc1cc2cccc([N+](=O)[O-])c2oc1=O)c1cccs1,-0.1,12.2%,18.9%,-0.9%,·,-1.2,9.5%[15.4 µM]
CC(C)CN1CCN(CCCc2ccccc2)C(CCO)C1 (stereo not drawn),-0.7,7.0%,20.9%,-1.6%,1.4%,3.2,-2.4%[15.4 µM]
O=C(/C=C/c1ccccc1[N+](=O)[O-])c1ccc(F)cc1,-5.1,2.4%,-28.0%,0.7%,-1.4%,2.2,4.3%[15.4 µM]
O=C(NCCN1CCOCC1)c1cc(-c2ccc(Cl)s2)nc2ccccc12,-1.1,-10.1%,17.9%,9.4%,·,1.9,-10.0%[15.4 µM]
O=C(NCC1CCCO1)C(C(=O)c1ccccc1)n1cc(Cl)ccc1=O (stereo not drawn),-3.6,-3.2%,10.8%,14.5%[38.3 µM],2.6%,3.9,-14.4%
O=C(Nc1ccncc1)c1ccc(N2CCCC2=O)cc1,4.9,2.9%,·,1.3%,27.8%,·,3.1%[15.4 µM]
O=C(NCc1ccco1)c1cc([N+](=O)[O-])ccc1N1CCOCC1,-2.9,7.1%,5.3%,-0.3%,1.2%,5.2,17.5%
COc1cc2cc(CN(CCN3CCOCC3)C(=O)Nc3ccc(F)cc3)c(=O)[nH]c2cc1OC,-3.1,-4.4%,0.4%,3.0%,4.5%,-0.4,2.3%
O=C1NC(=O)C(c2ccccc2)(c2ccc(Cl)cc2Cl)N1 (stereo not drawn),-1.5,11.8%,·,0.5%,·,·,5.6%
Cc1cccc(OC(C)C(=O)OCC(=O)Nc2sccc2C(N)=O)c1 (stereo not drawn),-6.4,-0.1%,·,-0.8%,1.0%,·,13.4%[15.4 µM]
CCOC(=O)c1cccc(NC(=O)CCS(=O)(=O)c2cccs2)c1,-0.6,-9.0%,16.9%,1.4%,-4.2%,7.7,-48.1%[inhibitor]
O=C(CNC1CCCCC1)Nc1ccc([N+](=O)[O-])cc1C(=O)Nc1ccccc1F,-5.0,-22.1%,7.0%,3.1%,0.2%,-1.3,-15.0%
COc1ccc(NC(=O)Cn2c(=O)oc3ccccc32)cc1,-5.3,19.2%,-1.0%,0.3%&0.9%,0.3%&-2.1%,-0.5,?
O=C1CCC(C(=O)OCC(=O)C23CC4CC(CC(C4)C2)C3)N1 (stereo not drawn),0.3,11.8%,16.3%,-0.7%,-3.4%,2.2,11.7%
C=CCn1c(SCC(=O)NCCc2ccccc2)nnc1C1CC1,-5.9,-0.4%,·,0.2%,-2.1%,·,?
COCc1[nH][nH]c(=O)c1C=Nc1ccc(Oc2ccccc2)cc1,-0.5,-2.6%,-5.6%,4.3%,2.3%,-1.6,-2.6%
CCOC(=O)[C@@H]1[C@H]2COc3cc(OC)ccc3[C@@H]2N2C(=O)N(c3ccc(C(F)(F)F)cc3)C(=O)[C@]12C,-1.2,9.1%,12.8%,4.1%,0.4%,3.4,-38.7%[inhibitor]
COc1ccccc1CNC(=O)COC(=O)c1ncc(Cl)c(Cl)c1Cl,-1.9,-12.1%,·,3.5%,-1.8%,·,-18.0%
Cc1nn(-c2ccccc2)c(=O)c2noc(C)c12,-0.2,-2.6%,10.2%,3.3%,-1.1%,11.7,2.7%[15.4 µM]
COc1ccc(CCNC(=O)CCn2c(=O)[nH]c3cc(OC)c(OC)cc3c2=O)cc1OC,-0.9,-2.8%,17.9%,1.8%,?,-0.7,-11.1%
COC(=O)C(Cc1c[nH]c2ccccc12)NC(=O)C(C)C (stereo not drawn),-2.3,-0.9%,18.7%,0.0%,-1.3%,2.8,-25.0%
# (continued)
SMILES,D2 agonist,gsp antagonist,Sfp PPTase inh,PINK1 expr mod,ClpP mod,Menin MLL FP FL,gsp agonist
COc1ccc(Cl)cc1C(=O)Nn1c(-c2cccs2)nc2ccccc2c1=O,-0.8,-6.6%,-20.5%,0.0%,-3.1%,2.6,26.6%
COc1ccc(CCNC(=O)C(CCC(N)=O)NS(=O)(=O)c2ccc(Cl)cc2)cc1OC (stereo not drawn),3.3,16.8%,-10.2%,-0.5%,-1.7%,-6.1,1.6%
O=C(O)c1cccnc1Sc1ncnc2sc3c(c12)CCC3,-4.9,16.3%,-28.6%,-1.3%,·,1.5,-3.5%[15.4 µM]
Cc1cccc(C(=O)Oc2cccc3c(O)cccc23)c1,-1.1,4.1%,?,5.5%,-1.0%,0.2,-10.1%
CC(=O)Oc1ccccc1C1=NN(C(=O)/C=C/c2ccccc2)C(c2ccccc2)C1 (stereo not drawn),-2.7,?,0.3%,-2.1%,-10.5%,6.6,0.4%
CNCCCOc1ccc(C(C)(C)c2ccccc2)cc1,-12.0,·,56.2µM*,·,·,-0.7,·
CC(C)CCOc1cccc(C2c3c(oc4ccccc4c3=O)C(=O)N2CCCN2CCOCC2)c1 (stereo not drawn),-3.1,6.5%,·,2.0%,0.1%,·,?
CCc1nnc(NC(=O)c2cccc(S(=O)(=O)N3CCN(C)CC3)c2)s1,-4.2,·,·,-1.0%,-0.4%,·,-52.2%[inhibitor]
COc1cccc2cc(-c3nnc(SCC(=O)NCCc4ccccc4)n3C)oc12,-2.8,7.1%,-0.4%,2.0%,-6.3%,2.4,-39.0%[inhibitor]
O=C(NCCOC(=O)c1ccccc1C(=O)OCCNC(=O)c1cccnc1)c1cccnc1,-2.2,6.9%,18.1%,-12.7%[38.3 µM],-0.5%,3.3,5.9%
Cn1c(CNC(=O)c2ccccc2F)nnc1SCc1ccc(Cl)cc1,0.3,0.3%,22.1%,-2.2%,·,-1.8,-24.2%
CC(C)C(=O)N1CCN(CCN2C(=O)c3cccc4cccc(c34)C2=O)CC1,8.9,4.6%,10.3%,-2.7%,-14.7%,3.4,?
CCOC(=O)c1c(NC(=O)CN2CCOCC2)sc2c1CC(C)(C)OC2,-3.1,-1.5%,-25.5%,4.9%,0.5%,7.1,-31.5%[inhibitor]
CCCCc1nc2ccccc2n1CC(=O)NN,-1.8,0.1%,3.6%,1.6%,-1.2%,6.6,-27.7%
CCOC(=O)c1nnn(-c2nonc2N)c1-c1ccc(Br)cc1,-6.5,-2.1%,13.5%,1.8%,-2.3%,-1.4,-17.0%
NC(=O)[C@@H]1CCOc2c(F)cc([N+](=O)[O-])cc2C(=O)N[C@@H](CO)C(=O)NCC(=O)N1,-7.8,9.5%,4.4%,-1.5%,-1.3%,-6.2,?
CCn1cc(CN2N=C(C)CC2c2ccccc2)c(C)n1 (stereo not drawn),-3.9,-2.6%,12.4%,1.4%,·,2.0,14.0%
Cc1cc(NC(=O)CSC2=NS(=O)(=O)c3ccccc3N2)no1,-6.6,2.6%,·,4.5%,-1.8%,·,0.9%
O=P(OCC1CC1)(c1ccccc1)c1ccccc1,5.6,1.9%,5.4%,-1.9%,-2.1%,0.6,8.7%[15.4 µM]
Cc1cc(C)cc(NS(=O)(=O)c2c(C(=O)N3CCOCC3)c(C)n(C)c2C)c1,-4.8,8.3%,17.2%,-0.9%,0.8%,-2.2,27.5%
Cc1oc(-c2ccc(Cl)cc2)cc1C(=O)O,-0.6,-15.4%,-0.4%,0.7%,·,0.7,?
CC(=O)c1cccc(NC(=O)COc2nsnc2N2CCOCC2)c1,1.1,-28.4%,4.7%,1.6%,-0.7%,2.3,25.8%
CCOc1ccc(-c2cnc3cccnn23)cc1,-3.9,·,·,-0.9%,-5.0%,·,·
Cc1ccc(/C=C2/C(=O)ON=C2c2ccccc2)o1,-5.4,-22.7%,14.1µM*,0.3%,-4.1%,?,24.7%
Cc1ccc(SCCC(=O)N(C)CC(=O)Nc2c(C)cccc2C)cc1,-0.9,-2.8%,4.0%,3.7%,-1.8%,·,-21.2%
# Carrying on.
SMILES,D2 agonist,gsp antagonist,Sfp PPTase inh,PINK1 expr mod,ClpP mod,Menin MLL FP FL,gsp agonist
Cc1cc(NC(=O)CN2C(=O)NC(C)(c3ccccc3Cl)C2=O)no1 (stereo not drawn),1.6,-9.2%,·,-0.6%,·,·,-29.5%
Cc1cnc(CNc2nc(-c3cccnc3)nc3ccccc23)cn1,·,·,?,0.8%,·,-3.5,·
COc1ccc(-c2cc(-c3ccccc3)nc(Cl)n2)cc1OC,7.9,-12.6%,-22.4%,1.2%,·,0.1,12.3%
COC(=O)c1ccc(OCC(O)CN2CCOCC2)cc1 (stereo not drawn),0.3,8.0%,19.3%,2.2%,2.1%,-5.0,-33.5%[inhibitor]
Cc1nc2nc(CSc3nc4ccccc4s3)cc(=O)n2[nH]1,-3.1,4.4%,-3.7%,0.3%,0.0%,6.3,3.4%
COc1cccc(C2Oc3ccccc3C3CC(c4cccs4)=NN32)c1 (stereo not drawn),-3.4,1.9%,13.5%,-0.8%,·,17.8,3.1%[15.4 µM]
COc1ccccc1CNC(=O)COC(=O)c1cccc(S(=O)(=O)N2CCCCC2)c1,13.2,1.9%,16.4%,-1.1%,-1.3%,·,-3.0%[15.4 µM]
Cc1ccc(CCN2CC(C(=O)NCCCN3CCN(C)CC3)CC2=O)cc1 (stereo not drawn),-5.5,8.5%,25.5%,-1.0%,0.8%,-1.0,2.6%
CCc1ccc(NC(=O)CSc2nc3ccccc3c(=O)n2CCCN2CCC(C)CC2)cc1,-4.0,-12.6%,-16.2%,-3.6%,-5.4%,-0.3,23.1%[15.4 µM]
O=C(c1ccco1)N(CCC(c1ccccc1)c1ccco1)Cc1ccc(F)cc1 (stereo not drawn),-1.7,-10.1%,-7.1%,0.9%[38.3 µM],-1.8%,0.5,19.6%
O=C(NCC1(N2CCCCC2)CCCCC1)c1ccc(S(=O)(=O)N2CCCC2)cc1,0.0,0.0%,9.0%,-2.5%,·,6.2,-10.3%[15.4 µM]
CC1CCN(C(=O)COC(=O)c2ccc3c(c2)OCCO3)CC1,-0.2,0.2%,·,0.2%,-2.4%,·,-5.5%
Cc1ccc(OCCCCCN2CCOCC2)c(Cl)c1,1.1,9.5%,·,-2.3%,·,·,15.1%
